# Screening data as filed in PubChem BioAssay.
# Cruzain Triton = blocks cruzain activity in presence of Triton detergent. Potency, µM, without a hit: max response, negative = inhibition, actives largely listed as inhibitors. P25779. 0.43% of 200,000 active. purified cruzain, Z-FR-AMC fluorescence, 0.01% Triton; active = well fitted curve in the direction sought with a large enough effect; inconclusive = small, poorly fitted or top-dose-only effect, or another doubt; inactive = no such curve, though single readings can be large; an effect the other way counts as inactive or inconclusive;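 note: plate controls were neutral wells for no effect and buffer without enzyme for full effect; nearly all actives have a fitted effect of over 40% in size; top concentration of the series not given in the record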
# Target sequence (P25779 123-467 limits assumed): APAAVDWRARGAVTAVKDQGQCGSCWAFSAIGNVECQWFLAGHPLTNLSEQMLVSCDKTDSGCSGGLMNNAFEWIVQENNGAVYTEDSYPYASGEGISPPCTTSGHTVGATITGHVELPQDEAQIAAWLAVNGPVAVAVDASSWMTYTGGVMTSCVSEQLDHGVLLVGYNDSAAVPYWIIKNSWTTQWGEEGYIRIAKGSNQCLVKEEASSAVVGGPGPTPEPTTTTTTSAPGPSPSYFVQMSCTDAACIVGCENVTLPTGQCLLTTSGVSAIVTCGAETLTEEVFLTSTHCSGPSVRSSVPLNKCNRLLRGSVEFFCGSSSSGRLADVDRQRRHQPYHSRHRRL
#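 Cruzain (1.5 nM) preincubated 15 min at RT with compound in 100 mM sodium acetate pH 5.5, 5 mM DTT, 0.01% Triton X-100. Reaction started with 2 uM Z-FR-AMC; AMC fluorescence (ex 360/em 450 nm) change over 60 s gave rate.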
# Marburg entry inh = inhibitors of Marburg virus binding or cell entry; Marburg virus pseudotyped entry inhibition, cell reporter; control for the full effect not named in the record; about a third of the inactives were read at about 46 µM; Potency, µM (doses to about 37.8 µM), without a hit: at the top dose activity change, negative = inhibition, hits mostly inhibitors; 1.8% of 300,000 active; active = well fitted inhibition curve with a large enough effect; inconclusive = small, poorly fitted or top-dose-only effect, or effect the other way; inactive = flat fitted curve, though single readings scatter; tested in HEK293 cells; about a fifth of its hits are not listed in these tables; note: % is set by controls: 0 for no effect and ±100 for the full control effect; luciferase read-out
# SARS PLP yeast = SARS-CoV PLP inhibition in yeast; S. cerevisiae expressing SARS-CoV PLpro, growth rescue; control for the full effect not named in the record; Potency, µM (top dose mostly 32.9 µM), without a hit: top-dose activity, positive = growth rescue; 0.19% of 330,000 active; note: 0% is about no effect; nearly all actives have a fitted effect of over 55% in size; growth read by luminescence after 48 h
# RE007 growth inh = less growth of the S. pombe RE007 Vpr strain. AID 651644. Potency, µM (doses to about 92.2 µM), inactives show top-dose activity change, negative = less growth. 0.21% of 360,000 active. S. pombe RE007 Vpr strain, BacTiter-Glo ATP luminescence, 24 h; control for the full effect not named in the record; active = well fitted falling curve with a large enough effect; inconclusive = small, poorly fitted or top-dose-only effect; inactive = no such curve, though single readings can be large or run the other way;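 note: % is set by controls: 0 for no effect and ±100 for the full control effect; nearly all actives have a fitted effect of over 50% in size; the assay follows cell death caused by Vpr and the record does not say whether a fall means rescue or toxicity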
#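 Fission yeast RE007 carrying one integrated HIV-1 vpr copy, seeded at OD 0.01 in PMG+AL medium with 23 nL pinned compound. Grown 24 h at 30 degrees; viability read by BacTiter-Glo luminescence after 5 min.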
# LASV entry inh = inhibitors of Lassa virus binding or cell entry; AID 540256; Potency, µM (top dose mostly 37.9 µM), without a hit: top-dose activity change, negative = inhibition, most hits filed as inhibitors; 1.2% of 300,000 active; Lassa virus pseudotype entry inhibition, cell reporter; control for the full effect not named in the record; active means well fitted inhibition curve with a large enough effect; inconclusive means small, poorly fitted or top-dose-only effect, or effect the other way; inactive means flat fitted curve, though single readings scatter; tested in HEK293 cells; note: % is set by controls: 0 for no effect and ±100 for the full control effect; nearly all actives have a fitted effect of over 50% in size; luciferase read-out
# Cruzain inh noDet = cruzain (T. cruzi) inhibition without detergent. Potency, µM, inactives show max response, negative = inhibition, actives largely listed as inhibitors. 2.3% of 200,000 active. purified cruzain, Z-FR-AMC fluorescence, no detergent. P25779; active = well fitted curve in the direction sought with a large enough effect; inconclusive = small, poorly fitted or top-dose-only effect, or another doubt; inactive = no such curve, though single readings can be large; an effect the other way counts as inactive or inconclusive;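 note: plate controls were enzyme without inhibitor for no effect and buffer without enzyme for full effect; nearly all actives have a fitted effect of over 40% in size; top concentration of the series not given in the record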
#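 Detergent-free condition (0.00005% Triton X-100) in acetate buffer pH 5.5 with DTT. 1.5 nM enzyme and compound were pre-mixed 15 min, then 2 uM Z-FR-AMC substrate added; reaction progress from fluorescence change between first and third reads (60 s).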
# NS1 inh = inhibitors of influenza NS1 protein function; S. cerevisiae slowed by influenza A NS1, growth recovery by OD600; 0.4% of 270,000 active; Potency, µM (highest dose often 46.1 µM), for the others: at the highest dose activity, positive = more growth; note: actives are rising curves; nearly all actives have a fitted effect of over 50% in size
#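 Compounds were scored for reversing the slow growth caused by influenza A NS1 in S. cerevisiae, measured by optical density at 600 nm. Assay medium contained 2% galactose at pH 6.0; NS1-free yeast of the same strain were the positive control.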
# StopGo reporter = lowers the luciferase signal of an FMDV 2A StopGo reporter. human cells with a luciferase reporter of 2A StopGo recoding; control for the full effect not named in the record. Potency, µM (highest dose often 57.9 µM), without a hit: at the top dose signal change, negative = less light. 1.2% of 410,000 active; active = well fitted falling curve with a large enough effect; inconclusive = small, poorly fitted or top-dose-only effect; inactive = no such curve, though single readings can be large or run the other way; tested in HEK293T cells; note: % is set by controls: 0 for no effect and ±100 for the full control effect; nearly all actives have a fitted effect of over 45% in size; luciferase light after 4 h
# Active calls of the source: *; ? = inconclusive; / = no result given; [ ] = remark or other dose. Unless noted, calls come from the whole dose curve; as a rule, active means well fitted rising curve with a large enough effect; inconclusive means small, poorly fitted or top-dose-only effect; inactive means no such curve, though single readings can be large or run the other way. Potency is the fitted concentration of half-maximal effect.
# Every second line gives: Cruzain Triton | Marburg entry inh | SARS PLP yeast | RE007 growth inh | LASV entry inh | Cruzain inh noDet | NS1 inh | StopGo reporter
O=C1C(CSCc2ccccc2)NC(=S)N1c1ccccc1 (stereo not drawn)
 : / | / | 0% | -8% | / | / | 8% | 28µM*
O=C(NCCOc1ccccc1)c1ncn[nH]1
 : 2.4% | 18% | -3% | 15% | 21% | -4% | -31% | 14%
O=Cc1cn(CC(=O)N2CCCCC2)c2ccccc12
 : -5.7% | 31% | 14% | 7% | 1% | -10% | 3% | 10%
COc1cccc(-n2nnnc2SCC(=O)Nc2cccc(NC(C)=O)c2)c1
 : -1.2% | 10% | -1% | 1% | -4% | 9% | -12% | /
C[C@H]1CC[C@@H]2[C@@H](C)[C@H]3[C@H](C[C@H]4[C@@H]5CC=C6C[C@@H](O[C@@H]7O[C@H](CO)[C@H](O)[C@H](O[C@@H]8O[C@H](CO)[C@@H](O)[C@H](O)[C@H]8O)[C@H]7O[C@@H]7O[C@@H](C)[C@H](O)[C@@H](O)[C@H]7O)CC[C@]6(C)[C@H]5CC[C@]34C)N2C1
 : -6.3% | ? | 5% | -11% | ? | ? | 9% | ?
COc1ccc(NC(=O)CSc2nc3c(c(=O)n2-c2ccc(F)cc2)SCC3)c(OC)c1
 : 1.6% | -22%[46.1 µM] | -5% | -15% | -3% | -8% | -18% | -17%
CCN(CC(=O)Nc1c(F)cccc1F)C(=O)Cc1sc(C)nc1-c1ccc(F)cc1
 : / | -17% | 2% | 14% | 1% | / | / | -14%
Cc1ccc[n+](CC(=O)c2ccc(NC(=O)c3ccccc3)cc2)c1C
 : / | 27%[46.1 µM] | / | 9% | 5%[46.1 µM] | / | / | -1%
COc1ccccc1CCNC(=O)CSc1nc(=O)[nH]c2c1CCC2
 : / | 7% | 1% | 5% | -15% | / | / | -15%
CC1CCN(c2c(NCC3CCC(C(=O)N4CCCCC4)CC3)c(=O)c2=O)CC1 (stereo not drawn)
 : -2.7% | / | 7% | 3% | / | -7% | -3% | 3%
COC(=O)c1ccccc1NC(=O)c1ccccc1N(C)S(=O)(=O)c1ccccc1
 : -6.4% | 4% | -2% | 7% | ? | 2% | -12% | 11%
CCON1C(=O)CN(C(=O)OC)C1c1ccc(Cl)cc1Cl (stereo not drawn)
 : -1.1% | -35% | 19% | 21% | -4% | 11% | -1% | -8%
COc1cc2c(cc1OC)CN(C(=O)C1CCN(S(=O)(=O)c3ccccc3F)CC1)CC2
 : / | -6%[46.1 µM] | 0% | -9% | -12%[46.1 µM] | / | 5% | -5%
Cc1cc(C(=O)CSc2nnc(-c3cccc(F)c3)n2N)c(C)n1Cc1ccc2c(c1)OCO2
 : -0.1% | ? | -5% | -2% | -27% | 20µM* | ? | ?
NCCCC(=O)N1c2ccccc2Sc2ccc(Cl)cc21
 : / | ? | 0% | 5% | 0.71µM* | / | -1% | -23%
COc1ccc(Oc2ccccc2C#N)cc1
 : / | ? | 0% | -1% | -16%[46.1 µM] | / | -3% | 17%
O=C1N=C(N2CCOCC2)SC1=Cc1ccco1
 : / | -19%[46.1 µM] | / | 12% | -26%[46.1 µM] | / | / | 17%
CCc1ccc(-n2c(Cn3nc(C(F)(F)F)cc3C)n[nH]c2=S)cc1
 : 0.9% | 5% | 4% | 10% | -27%[14.3 µM] | -4% | 11% | -14%
O=C(NC(=S)NNC(=O)c1ccccc1O)c1ccc(F)cc1
 : / | ? | 3% | 2% | -14%[46.1 µM] | / | -66% | -1%
CC(=O)c1sc(Nc2nc(C)cc(C)n2)nc1C
 : -3.6% | ? | 14% | -7% | -2% | 21% | -6% | -14%
CCOc1cccc(NC(=O)c2ccc(F)c(S(=O)(=O)N(CC)c3cccc(C)c3)c2)c1
 : -0.4% | / | / | / | -20%[46.1 µM] | -18% | / | -15%
COc1ccc(-c2noc(CSc3nnc(Cc4ccccc4)n3-c3ccc(Cl)cc3)n2)cc1
 : -3.9% | ? | 4% | 0% | 4.1µM* | 1% | 10% | -20%
CC(=O)NC(CC(=O)NCCN1C(=O)S/C(=C\c2ccccc2)C1=O)c1ccccc1 (stereo not drawn)
 : / | / | -2% | 0% | / | / | 3% | ?
COc1ccc(N(C(=O)c2ccco2)C(C(=O)NC2CCCC2)c2ccc(N3CCOCC3)cc2)c(OC)c1 (stereo not drawn)
 : / | -14%[46.1 µM] | -3% | -16% | 1%[46.1 µM] | / | 1% | -3%
CC(C)c1nnc(NC(=O)CCC(=O)NC2CC2)s1
 : / | / | -6% | 1% | / | / | -4% | -4%
Cc1ccc2[nH]c(-c3ccccc3)cc(=O)c2c1
 : 1.3% | 0% | -3% | -15% | / | -11% | -7% | 8%
O=C(CN(CC1CCCO1)C(=O)CNS(=O)(=O)c1ccc(F)cc1)NCCc1ccccc1 (stereo not drawn)
 : / | ? | 0% | 8% | -18% | / | 1% | 23%
CC1Cc2ccccc2N1C(=S)Nc1ccc(S(N)(=O)=O)cc1 (stereo not drawn)
 : -4.5% | 4% | -2% | 4% | ? | -3% | -43% | -10%
Cc1nn(C)cc1-c1n[nH]c(=S)n1-c1ccc(Cl)cc1
 : -2.1% | 1% | -7% | 11% | 1% | -1% | 4% | -13%
O=C(Nc1nc(-c2ccc3c(c2)OCCO3)cs1)C1CCCC1
 : / | / | -12% | -8% | / | / | 4% | -10%

# Every second line gives: Cruzain Triton | Marburg entry inh | SARS PLP yeast | RE007 growth inh | LASV entry inh | Cruzain inh noDet | NS1 inh | StopGo reporter
CC(=O)c1sc(NC(=O)COc2ccc([N+](=O)[O-])cc2)nc1C
 : / | 20%[46.1 µM] | 1% | -9% | 21%[46.1 µM] | / | 3% | 18%
C=C(C)Cn1c(CCNC(=O)C(C)(C)C)nc2ccccc21
 : 3.8% | -15% | 1% | 1% | 3% | -15% | -3% | -27%
CCOc1ccc(Br)cc1S(=O)(=O)Nc1ccc(N2CCOCC2)cc1
 : -7.2% | -13% | -12% | 10% | -14% | 1% | -7% | 18%
C/C(=N/Oc1nc(C)cc(C)n1)c1ccccc1
 : 1.0% | 27%[46.1 µM] | 7% | 6% | 2% | 1% | -2% | 65%[activator]
O=C(CNC(=O)c1cccs1)Nc1ccncc1
 : / | ? | -4% | -16% | 1% | / | / | 9%
Cc1ccccc1NC(=O)NCCCCc1ccccc1
 : / | / | -7% | 16% | / | / | -43% | 30%[activator]
Cc1c(OC(C)C(=O)NCc2ccccn2)ccc2c3c(c(=O)oc12)CCC3 (stereo not drawn)
 : / | / | 6% | 0% | / | / | -36% | -30%
O=C(NCCc1ccc(Cl)cc1)c1ccc2c(c1)N(Cc1ccccc1)CCS2
 : -5.0% | 11%[46.1 µM] | / | / | 3%[46.1 µM] | -24% | / | -11%
Cc1nc2sc(C(c3ccco3)N3CCN(c4ccccc4)CC3)c(O)n2n1 (stereo not drawn)
 : -4.6% | / | -4% | -4% | / | 13% | -45% | -11%
O=C(Nc1ccn(-c2ccccc2)n1)c1ccccc1Br
 : -3.2% | / | -18% | -25% | / | 4% | -9% | 52%[activator]
O=C(CCC(=O)NC1CCCCCC1)Nc1nnc(C(F)(F)F)s1
 : 2.8% | -5% | 1% | -9% | 12% | -13% | -4% | -5%
OCC1(Cc2ccc(F)cc2)CCCN(Cc2ccc(F)cc2Cl)C1 (stereo not drawn)
 : / | ? | -2% | -29% | ? | / | 19% | ?
O=C(Nc1nccs1)c1ccccc1N=Cc1ccccc1
 : -8.2% | 15% | 19% | 1% | 9% | 2% | -20% | -5%
O=C(Nc1ccc2nc(SCC(=O)N3CCCC3)sc2c1)c1ccc(F)cc1
 : -3.2% | -3%[46.1 µM] | / | / | -22%[46.1 µM] | -15% | / | -9%
Cc1cc(/C=N/O)c(C)n1-c1ccccc1
 : 0.1% | ? | 13% | 4% | -2%[46.1 µM] | -8% | 20% | 24%
COc1cccc(CC2CC(=O)N(CCc3ccc4c(c3)OCO4)C2=O)c1 (stereo not drawn)
 : -3.9% | 12% | -4% | -8% | 16% | 0% | -13% | 0%
COc1ccc2c(c1)C(=NO)c1cc(OC)ccc1-2
 : -16% | -24% | -17% | -22% | 14% | -8% | -56% | 8%
COc1cc(C(=O)N2CCC(c3ccncc3)CC2)cc(OC)c1OC
 : 3.2% | / | / | / | ? | 9% | / | 23%
CN(C)C(=O)c1ccc2c(c1[N+](=O)[O-])C(=O)c1ccccc1C2=O
 : -0.1% | ? | 19% | -17% | ? | -11% | -14% | -18%
COc1ccc(OCc2cc(C(=O)NCC3CCCCO3)no2)c(Cl)c1 (stereo not drawn)
 : / | / | -4% | -9% | / | / | -28% | 18%

# Given tab-delimited: entries from further up
molecule	Cruzain Triton	Marburg entry inh	SARS PLP yeast	RE007 growth inh	LASV entry inh	Cruzain inh noDet	NS1 inh	StopGo reporter
OCC1(Cc2ccc(F)cc2)CCCN(Cc2ccc(F)cc2Cl)C1 (stereo not drawn)	/	?	-2%	-29%	?	/	19%	?
O=C(Nc1nccs1)c1ccccc1N=Cc1ccccc1	-8.2%	15%	19%	1%	9%	2%	-20%	-5%
O=C(Nc1ccc2nc(SCC(=O)N3CCCC3)sc2c1)c1ccc(F)cc1	-3.2%	-3%[46.1 µM]	/	/	-22%[46.1 µM]	-15%	/	-9%
Cc1cc(/C=N/O)c(C)n1-c1ccccc1	0.1%	?	13%	4%	-2%[46.1 µM]	-8%	20%	24%
COc1cccc(CC2CC(=O)N(CCc3ccc4c(c3)OCO4)C2=O)c1 (stereo not drawn)	-3.9%	12%	-4%	-8%	16%	0%	-13%	0%
COc1ccc2c(c1)C(=NO)c1cc(OC)ccc1-2	-16%	-24%	-17%	-22%	14%	-8%	-56%	8%
COc1cc(C(=O)N2CCC(c3ccncc3)CC2)cc(OC)c1OC	3.2%	/	/	/	?	9%	/	23%
CN(C)C(=O)c1ccc2c(c1[N+](=O)[O-])C(=O)c1ccccc1C2=O	-0.1%	?	19%	-17%	?	-11%	-14%	-18%
COc1ccc(OCc2cc(C(=O)NCC3CCCCO3)no2)c(Cl)c1 (stereo not drawn)	/	/	-4%	-9%	/	/	-28%	18%
